Compound activity deposited in PubChem BioAssay by National Center for Advancing Translational Sciences (NCATS).
VDR inh – inhibitors of human vitamin D receptor | Potency, µM, for inactives: max response, negative = inhibition, usual class: inhibitors | VDR-SRC2-3 peptide fluorescence polarization, 2 h | AID 504847 | 400,000 compounds, 0.93% hits; active = well fitted inhibition curve with a large enough effect; inconclusive = small, poorly fitted or top-dose-only effect, or another doubt; inactive = no such curve, though single readings can be large or run the other way; also: series mostly up to about 120 µM
Target sequence (P11473 whole entry, looked up): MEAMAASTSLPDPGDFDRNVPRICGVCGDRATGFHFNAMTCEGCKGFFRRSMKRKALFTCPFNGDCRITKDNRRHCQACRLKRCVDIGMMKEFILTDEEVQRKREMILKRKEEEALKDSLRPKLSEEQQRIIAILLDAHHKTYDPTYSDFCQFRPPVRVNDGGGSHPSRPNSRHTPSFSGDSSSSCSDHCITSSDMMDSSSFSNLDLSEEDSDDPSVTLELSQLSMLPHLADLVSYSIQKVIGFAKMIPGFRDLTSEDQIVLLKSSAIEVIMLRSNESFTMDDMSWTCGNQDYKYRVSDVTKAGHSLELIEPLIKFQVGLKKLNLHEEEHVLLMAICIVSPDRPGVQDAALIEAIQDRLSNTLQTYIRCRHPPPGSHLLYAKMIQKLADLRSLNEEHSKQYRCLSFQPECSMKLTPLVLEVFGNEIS
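Fluorescence polarization assay measuring small-molecule disruption of VDR binding to the coregulator peptide SRC2-3. Compounds were pin-transferred (23 nl) into the reagent mix and incubated 2 h at room temperature before reading.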
Starred values were filed as active, the others as inactive; ? = inconclusive; & = joins results of further samples. % is scaled to controls: 0 for no effect and ±100 for the full control effect; potency is read from the fitted curve at half-maximal effect.

VDR inh	smiles
-7%	O=C(O)c1ccccc1SCc1csc(-c2ccccc2)n1
-11%&4%	Cc1nc2sccn2c(=O)c1S(=O)(=O)Nc1ccc(N2CCN(C)CC2)cc1
-20%	O=C(CC1C(=O)NCCN1Cc1cccc(F)c1)NCCCOc1cccnc1 (centres undefined)
5%	CCOC(=O)C(CC(=O)Nc1nc(C(C)=O)c(C)s1)C(C)c1ccccc1 (centres undefined)
25%	O=C(O)c1cccc(NC(=O)c2ccccc2)c1
-10%	O=C(O)[C@H]1CCCC[C@H]1C(=O)Nc1ccc(Nc2ccccc2)cc1
-18%	COc1ccc(Cn2c(O)c(/C=C3/C=CC=N3)c(=O)[nH]c2=O)cc1
-6%	CCOC(=O)c1c(C)[nH]c(CCC(=O)NCCCN2CCN(c3cccc(Cl)c3)CC2)c1C
12%	COc1ccc(Cc2noc(-c3ccc(OC)c(OC)c3)n2)cc1OC
-10%	COc1cccc2c(=O)n(CC(=O)Nc3cccc(F)c3)ccc12
-3%	COc1ccc(-c2noc(N(c3nc(-c4ccc(OC)c(OC)c4)no3)c3ccccc3OC)n2)cc1OC
2%	CCOC(=O)C1=C(O)/C(=C/c2ccc(-c3ccccc3C(=O)O)o2)SC1=Nc1ccc(OC)cc1
-11%	O=C(NCc1ccc(F)cc1)C(Cc1ccccc1)NS(=O)(=O)c1cccs1 (centres undefined)
8%	CCCCOc1ccc(OC(=O)c2cccnc2)cc1
-1%	Cc1cc(C)c(OCCCCN(C)C)c(Br)c1
-6%	Cc1ccc(C)c(N2N=C(C(=O)OCc3nnc(-c4ccccc4)o3)CCC2=O)c1
-12%&9%	CCC1CN(C(=O)N2CCC(C(=O)NCc3ccco3)CC2)c2cc(C)ccc2O1 (centres undefined)
-12%	CCCn1c(SCC(=O)NCC(=O)Nc2ccc(F)c(F)c2F)nc2ccccc2c1=O
-2%	CCCn1cc(S(=O)(=O)c2ccc(OC)cc2)c(=O)c2cc(OC)ccc21
-19%	C[C@H](NC(=O)OCc1ccccc1)c1nnc([C@H](C)NC(=O)OCc2ccccc2)o1
-20%	O=C(O)Cc1sc(Nc2cccc3ccccc23)nc1-c1ccccc1
2%	Cc1cccc(/C(N)=N/OC(=O)c2cccs2)c1
-1%	COc1ccccc1NC(=O)CSc1oc(-c2ccco2)nc1S(=O)(=O)c1ccc(Br)cc1
2%	COC(=O)c1c(C)sc(-c2c(-c3ccc4c(c3)OCCO4)[nH]c3c2c(=O)[nH]c(=O)n3C)c1O
-2%	COCCCNC(=O)C1CCN(C(=O)c2cc3sccc3n2Cc2ccc(Cl)cc2)CC1

The list goes on; it opens with the four that closed the last part.
VDR inh	smiles
2%	Cc1cccc(/C(N)=N/OC(=O)c2cccs2)c1
-1%	COc1ccccc1NC(=O)CSc1oc(-c2ccco2)nc1S(=O)(=O)c1ccc(Br)cc1
2%	COC(=O)c1c(C)sc(-c2c(-c3ccc4c(c3)OCCO4)[nH]c3c2c(=O)[nH]c(=O)n3C)c1O
-2%	COCCCNC(=O)C1CCN(C(=O)c2cc3sccc3n2Cc2ccc(Cl)cc2)CC1
6%	CCNC(=O)c1cc2c(=O)n3cccc(C)c3nc2n(CCc2ccccc2)c1=N
2%	CC(C)(C)c1ccc(C(=O)NN=C2CCCC2)cc1
-25%	CCSc1nnc(NC(=O)[C@H](C)NC(=O)c2ccccc2Cl)s1
-1%	Cc1ccc2c(c1)nc(-n1nc(C)cc1C)c1nnnn12
-6%	Cc1ccc(CNC(=O)C(NS(=O)(=O)c2cccc3nsnc23)c2ccccc2)cc1 (centres undefined)
-5%	CCCNC(=O)C1CC(=O)N(c2ccc(OCc3ccc(F)cc3)cc2)C1 (centres undefined)
-24%	Cn1c(=O)c2c(nc(SCc3nn[nH]n3)n2Cc2ccccc2F)n(C)c1=O
-8%	CC(=O)Nc1ccc(N/C=C(\C#N)S(=O)(=O)c2ccc(Cl)cc2)cc1
-5%	CCOc1ncccc1C(=O)OCCN1C(=O)c2ccccc2C1=O
10%	CC(C)(C)C1CCC(C(=O)OCC(=O)c2ccc[nH]2)CC1 (centres undefined)
-12%	S=c1[nH]nc(-c2ccco2)n1-c1ccccc1Cl
-13%	Cc1c(Cl)cccc1-c1ccc(C(=O)Nc2ccc(F)cc2)o1
4%	CN1CCN(Cc2nc3c(c(=O)n(C)c(=O)n3C)n2Cc2cccc3ccccc23)CC1
6%	Cc1ccccc1N(CC(=O)NC1CCCCC1)C(=O)CNC(=O)c1cccs1
18%	COC(=O)c1ccc(OC)c(CSc2nnc(COc3ccccc3)o2)c1
7%	O=C1CCCC/C1=C/NCc1ccccc1
?	O=C1N[C@@H]2[C@H](CCCCC(=O)Oc3ccc([N+](=O)[O-])cc3)SC[C@H]2N1
-6%	O=C1C2C3CCCC3=C3CCCC3C2C(=O)N1c1ccccc1Cl (centres undefined)
0%	CC(=O)N1CCCN(Cc2cn(-c3ccc(C)cc3)nc2-c2cccc(C)c2)CC1
1%	COc1ccsc1C(=O)Nc1ccc(F)cc1F
-17%	COC(=O)c1ccc(NC(=O)N(c2ccccc2)c2ccccc2)cc1
2%	O=C(Nc1ccc(S(=O)(=O)Nc2nccs2)cc1)C(F)(F)F
1%	O=C(NCc1cccc2ccccc12)c1cccs1
5%	Cc1ccc(NC(=O)Cn2nnc3ccccc3c2=O)cc1C
0%	COc1ccccc1C(=O)Nc1cc(Cl)ccc1-n1cncn1

6 compounds out of the list above, arranged by their value in VDR inh, ascending:
VDR inh	smiles
-19%	C[C@H](NC(=O)OCc1ccccc1)c1nnc([C@H](C)NC(=O)OCc2ccccc2)o1
-12%	S=c1[nH]nc(-c2ccco2)n1-c1ccccc1Cl
-10%	COc1cccc2c(=O)n(CC(=O)Nc3cccc(F)c3)ccc12
-1%	COc1ccccc1NC(=O)CSc1oc(-c2ccco2)nc1S(=O)(=O)c1ccc(Br)cc1
2%	COC(=O)c1c(C)sc(-c2c(-c3ccc4c(c3)OCCO4)[nH]c3c2c(=O)[nH]c(=O)n3C)c1O
4%	CN1CCN(Cc2nc3c(c(=O)n(C)c(=O)n3C)n2Cc2cccc3ccccc23)CC1

The list continues.
VDR inh	smiles
2%	Cc1cc(C(=O)N2CCN(c3cc(Cl)ccc3C)CC2)c2c(C)nn(-c3ccccc3)c2n1
-5%	COc1ccc(NC(=O)N(C)C[C@H]2Oc3ccc(NC(=O)CCN4CCOCC4)cc3C(=O)N([C@@H](C)CO)C[C@H]2C)cc1
-19%	COC(=O)c1cc(S(=O)(=O)N2CCN(c3cccc(Cl)c3)CC2)c[nH]1
19%	COc1ccc(S(=O)(=O)Nc2ccc3oc(C)c(C(=O)O)c3c2)cc1
3%	CCN(CC1CCCN(CCc2cccc(F)c2)C1)C(=O)c1cc(C)oc1C (centres undefined)
13%	Cc1oc2ncnc(N3CCCCC3)c2c1C(=O)N1CCN(c2ccc(Cl)cc2)CC1
-4%	Cc1ccccc1-c1nc2sc(C)c(C)c2c(=O)o1
-8%	O=C(Cn1ncc2c3ccccc3n(Cc3ccccc3)c2c1=O)N1CCN(c2ccccn2)CC1
19%	O=C(C1CCN(c2ncnc3c2nc2n3CCCCC2)CC1)N1CCN(c2ccccc2)CC1
5%	COc1ccc(OC)c(-n2c(-c3cnccn3)n[nH]c2=S)c1
-12%	O=C(Nc1ccc(S(=O)(=O)N2CCOCC2)cc1)c1ccc2c(c1)S(=O)(=O)c1ccccc1C2=O
-6%	Cc1ccc(S(=O)(=O)NCc2cccnc2)cc1C(=O)N1CCCC1
4%	CC(NC(=O)C1CCCN(S(=O)(=O)c2cccc3nonc23)C1)c1ccccc1 (centres undefined)
8%	C/C(=N/NC(=O)CC1N=C(Cc2ccccc2)NNC1=O)c1cccnc1 (centres undefined)
-13%	CC(C)(C)S(=O)N1Cc2cc(=O)n(Cc3ccccc3)c(CCO)c2[C@H]1CCO (some centres undefined)
-26%	Nc1ccc(-c2nnn(Cc3ccccc3F)n2)cc1
6%	C=CCSc1nnc(NC(=O)c2ccc(NC(C)=O)cc2)s1
-4%	O=C(Nc1ccccc1C(=O)NCc1cccnc1)c1cccc([N+](=O)[O-])c1
-17%	CS(=O)(=O)Nc1cccc(-c2nc(NCc3cccs3)c3ccccc3n2)c1
-13%	CCC1CCC/C1=N\NC(=O)CCC(=O)Nc1ccccc1Cl (centres undefined)
-1%	CCc1cc(S(N)(=O)=O)cc(CC)c1NC(C)=O
-20%	COc1cccc(CN2CCC(CO)(CC3CCCCO3)CC2)c1 (centres undefined)
-12%	Cc1ccc(C(=O)Nc2ccc(Oc3ccc(C(=O)O)c(C(=O)O)c3)cc2)cc1C
-3%	Cc1ccc(NC(=S)N(Cc2ccco2)C(C)c2cccs2)c(Cl)c1 (centres undefined)
-19%	CCOC(=O)N1CCC(NC(=O)c2ccccc2C(=O)O)CC1

(next part)
VDR inh	smiles
10%	NC(=O)C1CCCN(CCc2ccccc2)C1 (centres undefined)
16%	COCC(=O)N1CCC2(CC1)CCN(c1ccccn1)CC2
9%	CN1CCN(C(=O)C2CCCN(c3ncnc4c3nc3n4CCCCC3)C2)CC1 (centres undefined)
13%	CC(C(=O)N1CCN(Cc2ccc3c(c2)OCO3)CC1)n1cc([N+](=O)[O-])cn1 (centres undefined)
-2%	CC(=O)Nc1ccc(NC(=O)c2ccc3c(c2)CCN3S(C)(=O)=O)cc1
-69%	CC1=NN(c2ccc(Cl)cc2)C(=O)C1C(c1ccccc1O)c1c(C)[nH]n(-c2ccc(Cl)cc2)c1=O (centres undefined)
-3%	O=C(O)c1ccc2c(c1)c1c3n2CCNC3CCC1 (centres undefined)
8%	NS(=O)(=O)c1cc(C(=O)N2CCc3ccccc32)c(Cl)cc1Cl
8%	CCN1C(=O)N[C@H](c2ccc(Br)cc2)C(C(=O)OC)=C1C
-13%	CC(C)(C)c1ccc(OCc2ccc(C(=O)NCc3cccnc3)o2)cc1
11%	COCCCNCCCCOc1c(Cl)cc(C)cc1Br
5%	Cc1ccc(-n2c(=O)c3sccc3n(CC(=O)NCc3ccco3)c2=O)cc1
-2%	Cc1cc(Cl)cc(C)c1OCCOCCNCc1ccccc1
-2%	COc1ccccc1CNC(=O)c1cc(C(C)=O)c[nH]1
-9%	CCOC(=O)C1=C(C)OC(N)=C(C#N)C1c1ccc(OC)c(CSc2ccccn2)c1 (centres undefined)
-17%	CC(=O)Nc1cccc(/C(C)=N/NC(=O)c2cccs2)c1
-3%	CC(C)n1c(C(=O)OCC(=O)NCc2ccc3c(c2)OCO3)cc2sccc21
-2%	O=C1CCCCCN1C(=O)c1ccc(C(=O)N2CCCCCC2=O)cc1
6%	CS/C(=N\S(=O)(=O)c1cccs1)Nc1ccc(F)cc1
4%&7%	Cc1ccccc1CN1C(=O)c2ccccc2Sc2ccc(C(=O)O)cc21
?	O=C(N/N=C/c1ccc(N2CCOCC2)o1)c1ccccc1[N+](=O)[O-]
-1%	CCn1nnnc1-c1ccc(OC)c(S(=O)(=O)Nc2ccc(S(N)(=O)=O)cc2)c1
3%	COc1cc(/C=C/C(=O)OCC(=O)NCC(=O)Nc2cccc(C)c2C)ccc1OC(F)F
-11%	COc1ccc(OC)c(NC(=O)Cn2c(=O)n(Cc3ccco3)c(=O)c3cc(OC)c(OC)cc32)c1
8%	CC(C)(C)OC(=O)N1CCC(c2c(C(=O)NCc3cccs3)cnn2-c2ccc(F)cc2F)CC1

Rewritten field by field: entries from further up
CC(=O)Nc1cccc(/C(C)=N/NC(=O)c2cccs2)c1
- VDR inh: -17%
CC(C)n1c(C(=O)OCC(=O)NCc2ccc3c(c2)OCO3)cc2sccc21
- VDR inh: -3%
O=C1CCCCCN1C(=O)c1ccc(C(=O)N2CCCCCC2=O)cc1
- VDR inh: -2%
CS/C(=N\S(=O)(=O)c1cccs1)Nc1ccc(F)cc1
- VDR inh: 6%

Continued.
VDR inh	smiles
-15%	COc1ccccc1OCc1nc(C#N)c(N2CCC(C(N)=O)CC2)o1
-9%	CCCCN1CC(COCc2ccccc2)Oc2cccc(Oc3ccc(C)cc3)c2S1(=O)=O (centres undefined)
12%	O=C(Nc1ccc(N2CCOCC2)cc1)c1ccccc1SCC(=O)N1CCCC1
-16%	COC(=O)c1ccc(Oc2cc(C)nc(NCc3ccccc3)n2)cc1
-13%	CC(=O)C[C@@H](O)CC(=O)[C@@H]1OC(=O)[C@@H](C)CCCCc2ccccc21
?	Cc1cccc(C)c1NC(=S)N/N=C1\CC2CC=CC12 (centres undefined)
-28%	CN(Cc1ccccc1)C(=O)c1cccc(NC(=O)Cc2ccc(NC(=O)C3CCN(C(=O)CCc4ccccc4)CC3)cc2)c1
0%	O=C(N/N=C/c1ccncc1)c1ccc(-n2cccc2)cc1
-20%	O=C(O)C1CC=CCC1C(=O)NCc1cn2ccccc2n1 (centres undefined)
-16%	CN(/N=C/c1ccc(N(C)C)cc1)C1=NS(=O)(=O)c2ccccc21
-15%	N#Cc1ccccc1Cn1c(=O)n(-c2cccc(C(F)(F)F)c2)c(=O)c2sccc21
0%	COCCCNC(=O)CC1Oc2ccccc2NC1=O (centres undefined)
7%	COc1ccccc1C(=O)NC(=O)COC(=O)c1oc2ccccc2c1C
17%	CCC(C(=O)Nc1ccccc1OC)n1c(C(=O)OC)cc2ccsc21 (centres undefined)
-1%	O=C(CCNC(=O)c1ccc(Cl)cc1)NC1CCCc2ccccc21 (centres undefined)
-18%	Cc1ccc(C(=O)N2CCN(c3ccccn3)CC2)cc1C
8%	CSc1cccc(NC(=O)C2CCCN(C(=O)c3cnn(-c4ccc(F)cc4)c3-n3cccc3)C2)c1 (centres undefined)
-6%	CCn1c(SCC(=O)Nc2c(C)n(C)n(-c3ccccc3)c2=O)nnc1-c1cccc(C)c1
-2%	O=C(COC(=O)Cc1ccc(F)cc1)Nc1ccc2[nH]c(=O)[nH]c2c1
16%	CC(=O)Nc1ccc(-c2csc(Nc3ccccn3)n2)cc1
-10%	Cc1cccc(Cn2c(=O)n(CCCC(=O)NCc3ccco3)c(=O)c3ccccc32)c1

These rows are one share of the data; rates above refer to the full screens.
